Sfp inh: blocks B. subtilis Sfp PPTase activity | AID 1490 | hit rate 3.5% among 310,000 | Potency, µM, for inactives: max response, negative = inhibition, most hits filed as inhibitors | Biochemical Sfp PPTase activity, qHTS | Q9F4F7; active means well fitted inhibition curve with a large enough effect; inconclusive means small, poorly fitted or top-dose-only effect, or another doubt; inactive means no such curve, though single readings can be large or run the other way;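 further: the enzyme is Sfp with the accession as filed and its product quenches rhodamine fluorescence; potency means the concentration at half of the fitted maximal effect; 0% = enzyme reaction without inhibitor and -100% = no enzyme wells; top concentration of the series not given in the record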
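With Hepes-Na pH 7.6 buffer containing 10 mM MgCl2, Sfp (15 nM) modified BHQ-2-YbbR (12.5 uM) using rhodamine-CoA (5 uM). Two reads 30 minutes apart at 525/598 nm yielded each well's rate.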
ClpP mod: qHTS Assay for Activators of ClpP. ATP-dependent Clp protease proteolytic subunit (Bacillus subtilis (strain 168)), P80244. purified B. subtilis ClpP, FRET peptide cleavage, 20 min. Potency, µM (series often up to 57.5 µM), for the others: top-dose activity change, negative = active. hit rate 1.9% among 340,000; active = well fitted falling curve with a large enough effect; inconclusive = small, poorly fitted or top-dose-only effect; inactive = no such curve, though single readings can be large or run the other way; further: potency means the concentration at half of the fitted maximal effect; the source files actives as falling curves though it sought activators and does not explain the sign; nearly all actives have a fitted effect of over 65% in size; many hits overshoot -100%
Target sequence (P80244 whole entry, looked up): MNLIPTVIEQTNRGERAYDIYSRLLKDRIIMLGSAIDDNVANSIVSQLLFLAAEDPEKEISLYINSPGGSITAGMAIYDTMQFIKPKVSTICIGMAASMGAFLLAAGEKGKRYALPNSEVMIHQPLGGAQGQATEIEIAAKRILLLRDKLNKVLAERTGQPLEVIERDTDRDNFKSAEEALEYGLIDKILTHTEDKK
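ClpP 10 microg/mL final, pH 8 Tris/KCl buffer with BSA, glycerol, Tween-20; compound pinned in; FRET-FV substrate; RT 20 min; Ex320/Em430; ΔFRET vs ADEP 5.8 microM, DMSO, no enzyme.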
gsp antagonist: antagonizes gsp, the McCune-Albright syndrome mutation. gsp-mutant cells, cAMP HTRF, 30 min; control for the full effect not named in the record. Potency, µM (highest dose often 76.9 µM), without a hit: at the top dose activity change, negative = inhibition, usual class: inhibitors. hit rate 0.4% among 340,000. AID 624288; active = falling curve of any shape with a large fitted effect; inconclusive = falling curve, mostly with a smaller effect; inactive = flat or rising curve; cell line not stated here;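 further: intracellular cAMP measured with PDE inhibitor Ro 20-1724 present during compound exposure; potency means the concentration at half of the fitted maximal effect; on the % scale 0 is the no-effect control and ±100 the full control effect; nearly all actives have a fitted effect of over 65% in size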
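HTRF cAMP measurement after 30 min RT detection following 30 min, 37C compound treatment alongside […] (added as 300 uM solution) in G418-selected cells seeded at 2000/well and grown 16–24 h.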
gsp agonist: agonists of gsp mutant (McCune-Albright syndrome); gsp mutant cells, cAMP HTRF, 30 min; control for the full effect not named in the record; Potency, µM (titrated, usually from 76.9 µM), for the others: top-dose activation (cAMP increase), actives largely listed as activators; hit rate 0.13% among 340,000; AID 624287; active = well fitted activation curve with a large enough effect; inconclusive = small, poorly fitted or top-dose-only effect, or another doubt; inactive = no such curve, though single readings can be large or run the other way; cell line not stated here;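 further: phosphodiesterase inhibitor Ro 20-1724 added with compounds to block cAMP breakdown; potency means the concentration at half of the fitted maximal effect; nearly all actives have a fitted effect of over 60% in size; about a fifth of the inactives were tested at one dose only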
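Cells in DMEM/10% FBS with G418 were pretreated with compounds in DMSO plus […] (300 uM stock) for 30 min at 37C. cAMP was measured by HTRF (cAMP-d2 plus anti-cAMP antibody-K) after 30 min at room temperature.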
Menin MLL FP FL: inhibitors of human menin-MLL interaction, wild-type MLL peptide; 290,000 tested, under 10 active; Fluorescence polarization, fluorescein-MLL peptide displacement from menin; FP activity change, % at 61.4 µM; inconclusive = falling polarisation curve, or a change in total fluorescence; inactive = total fluorescence flat and polarisation flat or rising; no compound was filed as active; the % refers to the polarisation; negative = inhibition;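 further: % of control where 0% means no effect; inhibitors lower the polarisation; unlabelled MLL peptide was the positive control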
TRPV1 PAM: enhances activation of the human vanilloid receptor TRPV1; Q8NER1; TRPV1-expressing cells, Fluo-8 calcium influx, capsaicin EC20 potentiation; host cell line not named in the record; control for the full effect not named in the record; potentiation, % at 8.33 µM; hit rate 0.02% among 320,000; AID 540277; active means potentiation above 80%; inconclusive means 30% to 80%; inactive means below 30%; further: 0% is about no effect
Target sequence (Q8NER1 whole entry, looked up): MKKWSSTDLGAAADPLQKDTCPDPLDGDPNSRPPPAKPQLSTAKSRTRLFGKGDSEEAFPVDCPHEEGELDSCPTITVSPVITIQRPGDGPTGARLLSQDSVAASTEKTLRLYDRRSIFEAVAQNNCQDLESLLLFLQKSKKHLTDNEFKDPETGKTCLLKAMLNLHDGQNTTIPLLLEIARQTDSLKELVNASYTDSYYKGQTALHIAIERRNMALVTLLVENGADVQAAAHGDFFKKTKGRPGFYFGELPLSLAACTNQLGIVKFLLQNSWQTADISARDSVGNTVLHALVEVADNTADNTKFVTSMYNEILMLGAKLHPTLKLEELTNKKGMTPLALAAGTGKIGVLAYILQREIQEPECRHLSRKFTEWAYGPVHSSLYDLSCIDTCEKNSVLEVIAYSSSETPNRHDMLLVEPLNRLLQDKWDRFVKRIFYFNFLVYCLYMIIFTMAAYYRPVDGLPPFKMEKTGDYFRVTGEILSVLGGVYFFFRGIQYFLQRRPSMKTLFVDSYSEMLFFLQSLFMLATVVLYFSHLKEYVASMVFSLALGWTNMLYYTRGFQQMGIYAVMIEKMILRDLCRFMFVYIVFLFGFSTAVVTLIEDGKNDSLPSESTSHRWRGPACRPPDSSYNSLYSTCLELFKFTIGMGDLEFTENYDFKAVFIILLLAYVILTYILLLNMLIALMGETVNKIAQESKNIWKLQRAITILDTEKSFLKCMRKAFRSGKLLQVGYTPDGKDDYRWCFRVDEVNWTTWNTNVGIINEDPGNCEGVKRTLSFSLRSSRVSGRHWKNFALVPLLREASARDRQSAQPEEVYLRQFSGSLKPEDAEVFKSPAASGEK
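TRPV1-expressing cells were cultured overnight at 35.5C and loaded with Fluo-8 calcium dye for 40 to 90 min at room temperature. After a 10 s baseline, compound was added and calcium influx was read kinetically for 3 min (ex 480/em 520 nm).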
CtBP-E1A inh: inhibitors of CtBP/E1A interaction; activity change, % (test concentration not listed); hit rate 0.49% among 340,000; AlphaScreen GST-E1A/His-CtBP binding, 1536-well; hits give low values; control for the full effect not named in the record; in the data active means activity change below about -65%; inconclusive means about -30% to -65%; inactive means above about -30%; further: on the % scale 0 is the no-effect control and ±100 the full control effect; compound concentration not given in the record
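In 5 uL wells, 23 nL compound meets equimolar GST-E1A and His-CtBP (5X stock 125 nM each) for 2 h, 37 °C. Beads (5X, 50 ug/mL) then 1 h, 37 °C, dark.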
Starred values were filed as active, the others as inactive; ? = inconclusive; . = no result given; & = joins results of further samples; [ ] = remark or other dose. A portion of the library. The share of hits here may be higher or lower than overall.

entry	Molecule	Sfp inh	ClpP mod	gsp antagonist	gsp agonist	Menin MLL FP FL	TRPV1 PAM	CtBP-E1A inh
1	Brc1cc2c(cc1CN1CCN(c3ccccc3)CC1)OCCO2	1%	.	7%	5%[15.4 µM]	5.7	-4	4
2	COC(=O)C1=C(c2ccccc2)C[C@@H]2CC[C@H]1N2C(=O)NCCS(C)=O (stereo partly specified)	.	0.5%	7%	.	.	.	2
3	CN(C)C(Cc1ccc(Cl)cc1)C(=O)c1ccccc1 (stereo unspecified)	4%	-5.0%	-9%	16%	9.7	-24	7
4	NC(=O)Cn1cc(C(=O)c2ccccc2F)c2ccccc21	-12%	1.6%	-3%	?	0.2	-2	5
5	NP(=O)(OCCCc1ccccc1)Oc1ccccc1Cl (stereo unspecified)	2%	-5.2%	9%	11%	-3.1	-11	-1
6	Cc1ccc(C(=O)N[C@@H](C)CN2C3=NC[C@@H](Cc4ccccc4)N3C[C@H]2Cc2ccc(O)cc2)cc1Br	-12%	-0.4%	7%	.	0.4	0	-12
7	COc1ccc2c3c([nH]c2c1)C(C)=NCC3	18%&-8%&-61%&7%&2%	4.3%	-3%	.	?	7	-21
8	CC(CN1CCOCC1)C(C#N)(c1ccccc1)c1ccccc1 (stereo unspecified)	.	.	-5%	-7%	.	.	0
9	CCOC(=O)C1=C(C)OC(N)=C(C#N)C12C(=O)Nc1ccc(C)cc12 (stereo unspecified)	3%	-0.3%	6%	-34%[inhibitor]	0.8	-3	7
10	CCCCN1CCC(C#N)(Nc2ccccc2)CC1	10%	-0.6%	5%	8%	0.9	-3	3

Going on with the list:
entry	Molecule	Sfp inh	ClpP mod	gsp antagonist	gsp agonist	Menin MLL FP FL	TRPV1 PAM	CtBP-E1A inh
11	CCC(=NCc1cccnc1)c1c(O)n(-c2ccccc2C)c(=O)[nH]c1=O	18%	.	-3%	4%[15.4 µM]	-2.7	-3	6
12	CC(C(=O)c1c[nH]c2ccccc12)N1CCN(C(=O)c2ccco2)CC1 (stereo unspecified)	22%	-1.5%	9%	-18%[15.4 µM]	1.0	.	2
13	O=C1c2ccccc2-c2cc3ccccc3cc21	.	0.4%	?	-44%[inhibitor]	.	.	2
14	NP(=O)(Oc1ccccc1Cl)Oc1ccccc1Cl	14%	2.6%	-6%	12%	2.4	16	10
15	CCCCCCn1c(=O)c(C(=O)Nc2ccncc2)c(O)c2ccccc21	16%	.	.	.	2.3	4	.
16	COc1cccc(N2CCN(CC(=O)Nc3ccc(SC(F)F)cc3)CC2)c1	32%[activator]	0.8%	-16%	-5%	3.1	-2	-9
17	CC1(C)COC(Nc2cccc(Cl)c2)=N1	12%	3.4%	14%	16%	0.4	-1	-1
18	COc1ccc(OP(=O)(Nc2ccccc2)Nc2ccccc2)cc1	-3%	-0.5%	9%	-33%[inhibitor]	0.0	-17	2
19	c1ccc(CNc2c3c(nc4ccccc24)CCC3)cc1	10%	.	5%	-14%	33[activator]	2	-2
20	Cc1[nH]c2ccccc2c1CCNCc1ccco1	0%	-5.3%	9%	-1%	-2.9	-14	.

Additional compounds
entry	Molecule	Sfp inh	ClpP mod	gsp antagonist	gsp agonist	Menin MLL FP FL	TRPV1 PAM	CtBP-E1A inh
21	CNC(=O)OCc1n(C)cc[n+]1C	3%	-1.2%	6%	18%	0.6	10	-5
22	Cc1nc2ccccc2c(=O)n1-c1ccc(Cl)c(Cl)c1	6%	.	-5%	?	-0.9	-2	3
23	COc1ccccc1N1CCN(CCc2ccccc2)CC1	-6%	2.9%	13%	-2%	1.8	23	.
24	CCN1CCN(c2ccc([N+](=O)[O-])cc2C(=O)OC)CC1	14%	.	-7%	-24%	0.4	-11	-2
25	Cc1cccnc1-n1c(-c2ccccc2)nc2ccccc2c1=O	13%	-0.2%	3%	21%	0.0	-4	4
26	CN(C)C(=O)Oc1cc(OC(=O)N(C)C)cc(C(O)CNC(C)(C)C)c1 (stereo unspecified)	2%	0.3%&1.5%	?	.	1.5	5&3	0&-2
27	CN1C(=O)N(C)C(=O)C2(Cc3cc(NC(=O)c4ccccc4Cl)ccc3N3CCCC32)C1=O (stereo unspecified)	-18%	-7.9%	2%	-16%	.	-4	-11
28	CN(C)C(=O)NC(O)C(Cl)(Cl)Cl (stereo unspecified)	1%	-1.5%	8%	-1%	4.1	5	4
29	CN1CCN(c2ccc([N+](=O)[O-])c(SCCO)c2)CC1	9%	0.3%	-3%	-5%[15.4 µM]	2.3	7	11
30	COC(=O)C1=C(c2ccc3ccccc3c2)C[C@@H]2CC[C@H]1N2C(=O)NCc1ccc(C(F)(F)F)cc1	.	-7.7%	-23%	2%	.	3	-2

Remaining list, next part:
entry	Molecule	Sfp inh	ClpP mod	gsp antagonist	gsp agonist	Menin MLL FP FL	TRPV1 PAM	CtBP-E1A inh
31	c1nc2nc3c(c(N4CCNCC4)n2n1)CCCC3	16%	-3.5%	6%	19%	-0.3	-10	-13
32	CC1[C@H]2Cc3ccc(O)cc3[C@]1(C)CCN2C (stereo partly specified)	.	-0.6%	0%	.	.	.	9
33	CN1CC(C(=O)c2ccc(F)cc2)C(c2c(F)cccc2Cl)C1 (stereo unspecified)	9%	0.9%	13%	6%	6.3	2	-8
34	COc1ccc2c(c1)c(C(=O)CN1CCN(C)CC1)c(C)n2Cc1ccccc1	-13%	-5.2%	5%	8%	-0.1	28	-7
35	Cc1ccc(C(=O)n2cc(CCN3CCS(=O)(=O)CC3)c3ccccc32)cc1	2%	-4.9%	-16%	21%	0.8	10	-7
36	Cc1ccc2c(c1)C1CN(C)CCC1N2C(=O)c1ccco1 (stereo unspecified)	4%	-2.2%	5%	-5%	0.0	-2	8
37	O=C(NC(=S)N1C[C@H]2C[C@H](C1)c1cccc(=O)n1C2)c1ccc(Cl)cc1Cl	-6%	-1.4%	1%	.	-3.2	0	6
38	COc1cccc2c1C(=O)c1c(O)c3c(c(O)c1C2=O)CC(O)(C(C)=NO)CC3OC1CC(N)C(O)C(C)O1 (stereo unspecified)	.	1.9%	-14%	0%	.	.	5
39	CCCC(C)C1(CC)C(=O)NC(=Nc2ccc(OC)cc2)NC1=O (stereo unspecified)	-5%	.	1%	-9%	0.0	18	-2
40	O=[N+]([O-])c1ccc(NCCCN2CCOCC2)nc1	-2%	-3.5%	16%	2%[15.4 µM]	-5.2	5	-1

Remaining list, next part
entry	Molecule	Sfp inh	ClpP mod	gsp antagonist	gsp agonist	Menin MLL FP FL	TRPV1 PAM	CtBP-E1A inh
41	COC(=O)C1=CCCN(C)C1	28%&11%&9%&-1%	0.9%	7%	.	5.1	14	2
42	CCCCn1c(O)c(C=NC2CCCCC2N)c(=O)[nH]c1=O (stereo unspecified)	8%	0.2%	-3%	-13%	0.1	-3	0
43	Cc1ccc(CC(=O)N2CCN(Cc3ccccc3)CC2)cc1	21%	2.4%	-16%	15%	-4.8	-13	.
44	CC(C)Oc1cccc(C(=O)C2CCCN(Cc3ccon3)C2)c1 (stereo unspecified)	17%	.	2%	-10%	3.0	5	0
45	CCC(=NCc1cc(OC)cc(OC)c1)c1c(O)n(C2CCCCC2)c(=O)[nH]c1=O	-4%	-2.2%	-1%	-15%	14	2	.
46	CC1CC2(O)c3nonc3CCC2N1O (stereo unspecified)	-3%	-1.6%	8%	5%	9.4	7	-3
47	COc1ccc(-n2c(=O)[nH]c3ccccc3c2=O)c(OC)c1	-12%	-6.6%	-11%	1%	0.7	-2	-2
48	NCCc1c[nH]c2ccc(O)cc12	2%&-5%&12%&-3%	-15%&-6.5%	-22%	.	7.0	17	-10
49	CN1CC[C@]23c4c5ccc(OC6OC(C(=O)O)[C@@H](O)C(O)[C@H]6O)c4OC2C(O)C=CC3[C@H]1C5 (stereo partly specified)	.	-1.1%	1%	.	.	.	2
50	CC1CN=C(NCc2ccccc2)S1 (stereo unspecified)	7%	-0.7%	5%	0%	-3.1	-5	10

Other results follow:
entry	Molecule	Sfp inh	ClpP mod	gsp antagonist	gsp agonist	Menin MLL FP FL	TRPV1 PAM	CtBP-E1A inh
51	COc1ccc(CC2NCC(O)C2OC(C)=O)cc1 (stereo unspecified)	-5%	0.1%	12%	-27%	-5.7	.	11
52	CC(C)N1C(=O)CC2(CC[N+](C)(CCOC(=O)C(O)(c3ccccc3)c3ccccc3)CC2)C1=O (stereo unspecified)	11%	2.1%	-12%[15.4 µM]	?	-0.6	-14	0
53	C#CCN(C)C(C)Cc1ccccc1 (stereo unspecified)	5%	-14%	37%[activator]	.	0.5&-3.2	5	1
54	O=C(O)C(Cc1cnc[nH]1)NS(=O)(=O)c1ccc(Br)cc1 (stereo unspecified)	-24%	.	11%	10%[15.4 µM]	-5.1	1	1
55	N#Cc1ccc(NC(=O)CN2C(=O)NC3(CCCCCCC3)C2=O)cc1Cl	.	0.5%	-10%	-7%	.	1	8
56	CC(=O)N1CCN(Cc2ccc(Cl)nc2)CC1	1%	.	0%	0%	?	9	7
57	CCCCCC[N+](=O)[O-]	.	-0.7%	4%	.	.	4	5
58	COc1ccc(CCn2c(O)c(C=NCCCN(C)C)c(=O)[nH]c2=O)cc1OC	10%	0.6%	7%	7%	3.3	5	10
59	COC(=O)C1=C(c2ccccc2OCc2ccccc2)C[C@@H]2CC[C@H]1N2C(=O)NCc1ccc([N+](=O)[O-])cc1	.	-2.9%	-11%	-28%	.	5	?
60	COc1ccc(CN2CCCC(C(=O)c3ccccc3SC)C2)cc1O (stereo unspecified)	6%	-3.8%	2%	17%	0.1	10	.
61	COc1cc2c(c(OC)c1O)-c1ccc(OC)c(=O)cc1C(NC(=O)C(F)(F)F)CC2 (stereo unspecified)	.	-5.8%	0%	8%	.	.	-7
62	Cc1ccc2c(c1)C1CN(C)CCC1N2C(=O)c1cccnc1Cl (stereo unspecified)	12%	-2.9%	7%	-17%	0.6	-25	10
63	COCCN1Cc2cc(=O)n3c([nH]c4ccccc43)c2C1=N	-17%	0.5%	?	-1%[15.4 µM]	-2.2	-4	?
